Sa RN4220 lethal: S. aureus RN4220 growth inhibition; inhibition, % (no concentration beside the values); 330,000 compounds, 0.33% hits; AID 1259311; OD600, 16 h;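 active means z-score of -3 or lower and OD600 up to 0.18 on both plates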;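 further: plate controls were untreated cells for no effect and reference antibiotic for full effect; stock transfer was 100 nL into about 80 µL; one replicate is shown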
Sa ugtP lethal: kills S. aureus RN4220 lacking UgtP | S. aureus RN4220 ugtP deletion, OD600 growth, 16 h; some inactives read as strong as hits | growth inhibition, % (test concentration not listed) | 330,000 compounds, 0.54% hits;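 active means z-score under -3 and OD600 up to 0.15 on both plates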;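 further: plate controls were untreated wells for no effect and antibiotic for full effect; wells of about 80 µL received 100 nL stock; the first replicate is given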
The depositor's hits bear a star. An excerpt, so the mix of outcomes need not match the whole.

CC1(C)SC(=S)N(N=Cc2ccccc2)C1N(O)C(=O)Nc1ccc([N+](=O)[O-])cc1 (stereo unspecified)
  Sa RN4220 lethal: -7.8; Sa ugtP lethal: -8

COC(=O)c1cc(NC(=O)c2cccc(C(F)(F)F)c2)c(=O)oc1CC=NOCc1cccc(Cl)c1Cl
  Sa RN4220 lethal: 6.5; Sa ugtP lethal: -12

COc1cccc(C=NNc2ncc(C(F)(F)F)cc2Cl)c1O
  Sa RN4220 lethal: 100*; Sa ugtP lethal: 99*

CC12CCC(CC1=NO)C2(C)C (stereo unspecified)
  Sa RN4220 lethal: 1.1; Sa ugtP lethal: -1

CC(C)(C)C(=O)ON=C1C(=O)N(c2ccccc2)c2ccccc21
  Sa RN4220 lethal: 1.6; Sa ugtP lethal: -13

COc1ccc(-c2cc(C(=O)NN=Cc3sccc3C)c3ccccc3n2)c(OC)c1
  Sa RN4220 lethal: -7.9; Sa ugtP lethal: 0

O=S(=O)(NN=Cc1c(F)cccc1Cl)c1ccc(Cl)cc1
  Sa RN4220 lethal: 4.0; Sa ugtP lethal: 5

COc1ccc(Br)cc1C=c1sc2nc(-c3ccco3)nn2c1=O
  Sa RN4220 lethal: 3.1; Sa ugtP lethal: -6

COc1ccc(C(C)=NNS(=O)(=O)c2ccccc2)cc1OC
  Sa RN4220 lethal: 2.5; Sa ugtP lethal: -1

O=S(=O)(ON=C1CCCc2ccccc21)c1ccccc1
  Sa RN4220 lethal: -0.7; Sa ugtP lethal: -2

COc1ccc(C=NNS(=O)(=O)c2ccccc2)cc1OS(=O)(=O)c1ccc(C)cc1
  Sa RN4220 lethal: 12; Sa ugtP lethal: -14

Molecules shown so far containing a halogen:
COC(=O)c1cc(NC(=O)c2cccc(C(F)(F)F)c2)c(=O)oc1CC=NOCc1cccc(Cl)c1Cl
  Sa RN4220 lethal: 6.5; Sa ugtP lethal: -12

COc1cccc(C=NNc2ncc(C(F)(F)F)cc2Cl)c1O
  Sa RN4220 lethal: 100*; Sa ugtP lethal: 99*

O=S(=O)(NN=Cc1c(F)cccc1Cl)c1ccc(Cl)cc1
  Sa RN4220 lethal: 4.0; Sa ugtP lethal: 5

COc1ccc(Br)cc1C=c1sc2nc(-c3ccco3)nn2c1=O
  Sa RN4220 lethal: 3.1; Sa ugtP lethal: -6
